Cruzain inh Det = qHTS Assay for Promiscuous and Specific Inhibitors of Cruzain (with detergent); Cruzipain (Trypanosoma cruzi), P25779; purified cruzain, Z-FR-AMC fluorescence, 0.01% Triton; Potency, µM, for the others: max response, negative = inhibition, hits mostly inhibitors; AID 1478, 2009; 200,000 tested, 0.43% active; active means well fitted curve in the direction sought with a large enough effect; inconclusive means small, poorly fitted or top-dose-only effect, or another doubt; inactive means no such curve, though single readings can be large; an effect the other way counts as inactive or inconclusive;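 further: plate controls were neutral wells for no effect and buffer without enzyme for full effect; nearly all actives have a fitted effect of over 40% in size; top concentration of the series not given in the record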
Target sequence (P25779 123-467 limits assumed): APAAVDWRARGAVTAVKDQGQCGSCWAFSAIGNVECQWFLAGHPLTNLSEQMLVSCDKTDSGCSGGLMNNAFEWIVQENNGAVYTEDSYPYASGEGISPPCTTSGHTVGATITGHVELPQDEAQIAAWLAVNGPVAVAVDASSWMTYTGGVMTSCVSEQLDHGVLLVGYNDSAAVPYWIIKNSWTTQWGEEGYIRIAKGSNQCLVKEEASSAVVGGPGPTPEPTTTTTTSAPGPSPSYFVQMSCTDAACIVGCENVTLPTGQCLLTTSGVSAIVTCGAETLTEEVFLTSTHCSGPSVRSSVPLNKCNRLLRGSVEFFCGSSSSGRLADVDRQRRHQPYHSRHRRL
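Sodium acetate buffer (100 mM, pH 5.5) containing 5 mM DTT and 0.01% Triton X-100 hosted 1.5 nM cruzain and test compound for 15 min at room temperature. Cleavage of 2 uM Z-FR-AMC was then tracked by fluorescence.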
SARS PLP yeast = qHTS of Yeast-based Assay for SARS-CoV PLP; 330,000 tested, 0.19% active; Potency, µM (top dose mostly 32.9 µM), for inactives: at the highest dose activity, positive = growth rescue; S. cerevisiae expressing SARS-CoV PLpro, growth rescue; control for the full effect not named in the record; AID 485353, 2010; further: 0% is about no effect; nearly all actives have a fitted effect of over 55% in size; growth read by luminescence after 48 h
RE007 growth inh = qHTS Assay for Inhibitors of the HIV-1 protein Vpr; Potency, µM (highest dose often 92.2 µM), without a hit: at the top dose activity change, negative = less growth; S. pombe RE007 Vpr strain, BacTiter-Glo ATP luminescence, 24 h; control for the full effect not named in the record; 360,000 tested, 0.21% active; active = well fitted falling curve with a large enough effect; inconclusive = small, poorly fitted or top-dose-only effect; inactive = no such curve, though single readings can be large or run the other way;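 further: on the % scale 0 is the no-effect control and ±100 the full control effect; nearly all actives have a fitted effect of over 50% in size; the assay follows cell death caused by Vpr and the record does not say whether a fall means rescue or toxicity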
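Fission yeast strain RE007, carrying one chromosomally integrated HIV-1 vpr copy, was seeded at OD 0.01 in PMG+AL medium with 23 nL pinned compound. After 24 h at 30 °C and 99% humidity, viability was read by BacTiter-Glo luminescence.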
Lassa entry inh = qHTS for Inhibitors of binding or entry into cells for Lassa Virus. Lassa virus pseudotype entry inhibition, cell reporter; control for the full effect not named in the record. Potency, µM (doses to about 37.9 µM), without a hit: top-dose activity change, negative = inhibition, hits mostly inhibitors. 300,000 tested, 1.2% active. AID 540256, 2011; active means well fitted inhibition curve with a large enough effect; inconclusive means small, poorly fitted or top-dose-only effect, or effect the other way; inactive means flat fitted curve, though single readings scatter; tested in HEK293 cells; further: on the % scale 0 is the no-effect control and ±100 the full control effect; nearly all actives have a fitted effect of over 50% in size; luciferase read-out
NS1 function inh = qHTS Assay for Inhibitors of Influenza NS1 Protein Function; 270,000 tested, 0.4% active; S. cerevisiae slowed by influenza A NS1, growth recovery by OD600; Potency, µM (highest dose often 46.1 µM), for inactives: at the highest dose activity, positive = more growth; further: actives are rising curves; nearly all actives have a fitted effect of over 50% in size
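In this qHTS, NS1 from influenza A is expressed in budding yeast, where it slows growth. Cells are switched from glucose to 2% galactose medium (pH 6.0, -URA), treated with compound, and growth recovery is read at OD600.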
Cruzain inh noDet = qHTS Assay for Promiscuous and Specific Inhibitors of Cruzain (without detergent). purified cruzain, Z-FR-AMC fluorescence, no detergent. Potency, µM, for the others: max response, negative = inhibition, most hits filed as inhibitors. 200,000 tested, 2.3% active; active means well fitted curve in the direction sought with a large enough effect; inconclusive means small, poorly fitted or top-dose-only effect, or another doubt; inactive means no such curve, though single readings can be large; an effect the other way counts as inactive or inconclusive;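 further: plate controls were enzyme without inhibitor for no effect and buffer without enzyme for full effect; nearly all actives have a fitted effect of over 40% in size; top concentration of the series not given in the record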
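Purified cruzain at 1.5 nM, pre-incubated 15 min with compound at room temperature in 100 mM sodium acetate pH 5.5, 5 mM DTT, 0.00005% Triton X-100. Reaction started with 2 uM Z-FR-AMC; AMC fluorescence increase over 60 s gives rate.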
Marburg entry inh = qHTS for inhibitors of binding or entry into cells for Marburg Virus | Marburg virus pseudotyped entry inhibition, cell reporter; control for the full effect not named in the record; about a third of the inactives were read at about 46 µM | Potency, µM (series often up to 37.8 µM), for inactives: at the top dose activity change, negative = inhibition, usual class: inhibitors | 300,000 tested, 1.8% active | AID 540276, 2011; active = well fitted inhibition curve with a large enough effect; inconclusive = small, poorly fitted or top-dose-only effect, or effect the other way; inactive = flat fitted curve, though single readings scatter; tested in HEK293 cells; about a fifth of its hits are not listed in these tables; further: on the % scale 0 is the no-effect control and ±100 the full control effect; luciferase read-out
StopGo reporter = High Throughput Screening for Foot and Mouth Disease Virus Antivirals; 410,000 tested, 1.2% active; Potency, µM (top dose mostly 57.9 µM), inactives show at the top dose signal change, negative = less light; human cells with a luciferase reporter of 2A StopGo recoding; control for the full effect not named in the record; active = well fitted falling curve with a large enough effect; inconclusive = small, poorly fitted or top-dose-only effect; inactive = no such curve, though single readings can be large or run the other way; tested in HEK293T cells; further: on the % scale 0 is the no-effect control and ±100 the full control effect; nearly all actives have a fitted effect of over 45% in size; luciferase light after 4 h
Starred values were filed as active, the others as inactive; ? = inconclusive; nt = not tested or not shown; [ ] = remark or other dose. Unless noted, the call rests on the fitted dose curve; in most records, active means well fitted rising curve with a large enough effect; inconclusive means small, poorly fitted or top-dose-only effect; inactive means no such curve, though single readings can be large or run the other way. Potency means the concentration at half of the fitted maximal effect.

SMILES	Cruzain inh Det	SARS PLP yeast	RE007 growth inh	Lassa entry inh	NS1 function inh	Cruzain inh noDet	Marburg entry inh	StopGo reporter
O=C(c1ccccc1)C1CCN(C(=O)C2CCC(=O)N(Cc3cccc(F)c3)C2)CC1 (stereo not drawn)	nt	3%	-2%	nt	-1%	nt	nt	5%
CC(C)OC(=O)c1sc2nc3c(cc2c1N)C(=O)CCC3	5.2%	5%	-8%	?	17%	-10%	?	51%[activator]
O=C1COc2ccc(S(=O)(=O)N3CCC(C(=O)NCc4ccc(F)cc4)CC3)cc2N1	nt	10%	-6%	nt	-13%	nt	nt	-7%
Cc1ccc(-c2nc3ccccc3c(=O)n2-c2ccc(O)cc2)cc1	nt	1%	5%	-10%[46.1 µM]	3%	nt	?	-9%
CCc1ccccc1S(=O)(=O)Cc1ccc(C(=O)NCc2ccc(Cl)cc2)o1	-4.2%	nt	nt	?	nt	16%	-26%[46.1 µM]	-14%
O=C(CCc1ccc(S(=O)(=O)NCCc2ccccc2)cc1)NCc1ccc2c(c1)OCO2	-8.8%	6%	10%	3%	-1%	-2%	7%	21%
CC1CCCCN1C(=O)CSc1nnc(-c2cccc(Cl)c2)o1 (stereo not drawn)	-2.7%	nt	nt	-1%[46.1 µM]	nt	-6%	?	44%[activator]
CCOC(=O)C1=CN(Cc2ccc(OC)cc2)C=C(C(=O)OCC)C1c1cccs1	nt	1%	6%	?	13%	nt	?	-24%
CCN1CCN(c2cc(C)c3cc(NC(=S)N4CCCC(C)C4)ccc3n2)CC1 (stereo not drawn)	nt	-6%	-8%	?	-2%	nt	7.9µM*	-18%
C/C(=N/NC(=O)c1ccoc1C)C12CC3CC(CC(C3)C1)C2	4.4%	-4%	-6%	12%	7%	-7%	18%	32%[activator]
CC(=O)c1ccc(NC(=O)C2CCC(C)(C(=O)O)C2(C)C)cc1 (stereo not drawn)	-2.6%	5%	11%	4%	3%	-2%	-12%	6%
C=CCN1C(=O)/C(=C\c2cccs2)C(C(=O)OC)=C1C	-0.3%	-4%	-18%	1%	-3%	-3%	?	?
CCn1c(=O)cc(OCC(=O)N2CCc3ccccc32)c2ccccc21	-2.2%	-5%	-11%	-3%	-8%	-16%	?	-15%
COc1ccc(S(=O)(=O)N(Cc2ccccc2)Cc2nc3ccccc3c(=O)[nH]2)cc1	-2.8%	2%	14%	?	-15%	5%	-11%	-7%
O=C(CCN1CCN(Cc2ccccc2)CC1)NNC(=O)Nc1cccc([N+](=O)[O-])c1	nt	2%	4%	4%	6%	nt	?	-11%
Cc1ccc(C)c(C(=O)COC(=O)C2CCN(c3ccc(C(F)(F)F)cn3)CC2)c1	nt	1%	-8%	1%	nt	nt	0%	-4%
CCc1nn2c(=O)cc(CSCC(=O)Nc3ccccc3F)nc2s1	nt	25%	21%	nt	1%	nt	nt	-19%
Cc1ccc(-n2ccc(-c3nn(-c4ccccc4)ccc3=O)n2)cc1	nt	-4%	-5%	-1%[46.1 µM]	nt	nt	?	-18%
COc1ccc(N(C(C)=O)C2C=CS(=O)(=O)C2)c(OC)c1 (stereo not drawn)	1.7%	1%	-7%	2%	-1%	-1%	4%	10%
Cc1ccc(NC(=O)c2ccc(C)c(S(=O)(=O)N3CCCCCC3)c2)cc1	-4.9%	nt	nt	?	nt	1%	nt	-18%
CCOc1ccc(OCCSc2nnnn2-c2ccccc2)cc1	-2.4%	-21%	-5%	?	-13%	-12%	?	-5%
CCCCn1c(O)c(N=NC(=O)c2ccco2)c2ccccc21	-7.3%	-36%	-17%	?	2%	-6%	?	-5%
Cc1ccc(Cn2ccnc2SCC(=O)NCc2ccc(F)cc2)cc1	-1.7%	nt	nt	3%[46.1 µM]	nt	17%	nt	-12%
CC(=O)Nc1ccc(C)c(NS(=O)(=O)c2cccc(C(F)(F)F)c2)c1	nt	1%	-11%	11%	4%	nt	?	1%
COc1cccc(NP(=O)(Oc2ccccc2Cl)Oc2ccccc2Cl)c1	-6.9%	-42%	10%	?	-1%	-5%	-44%	?
Next section.
SMILES	Cruzain inh Det	SARS PLP yeast	RE007 growth inh	Lassa entry inh	NS1 function inh	Cruzain inh noDet	Marburg entry inh	StopGo reporter
COC(=O)C(Cc1c[nH]c2ccccc12)N1CCS(=O)(=O)CC1 (stereo not drawn)	nt	-1%	1%	14%	0%	nt	3%[46.1 µM]	-12%
CC(=O)Nc1ccc(S(=O)(=O)Oc2ccc(/C=N/N=C3/NC(=O)C(CC(=O)O)S3)cc2)cc1 (stereo not drawn)	nt	0%	27%	8%	-1%	nt	17%[46.1 µM]	-14%
COc1ccc(Cc2nnc(SCC(=O)N3CCCC(C)C3)o2)cc1 (stereo not drawn)	nt	0%	-3%	nt	2%	nt	nt	-5%
Cc1ccc(/C=N/N2CCCCC2)o1	nt	-2%	1%	8%	nt	nt	?	48%[activator]
Cc1ccc(Cc2nnc(SCC(=O)Nc3ccccc3)[nH]c2=O)cc1	nt	-2%	-11%	-17%	nt	nt	8%	-18%
O=C1NC2(CCCC2)C(=O)N1CC(=O)N(Cc1ccccc1)c1ccccc1	nt	1%	32%	0%	nt	nt	4%[46.1 µM]	-14%
CCOC(=O)C(CC)Sc1nnc2cc(C)c3ccccc3n12 (stereo not drawn)	nt	nt	-27%	6%	nt	nt	19%	-18%
CCc1nc(N2CCC3(CC2)OCCO3)c2nnn(Cc3ccccc3)c2n1	nt	3%	18%	1%	nt	nt	2%[46.1 µM]	-5%
O=C(c1cc(COc2c(F)cccc2F)on1)N1CCSCC1	nt	0%	-20%	15%	1%	nt	?	48%[activator]
COc1ccc(CNc2n[nH]c(-c3ccco3)n2)cc1OC	-1.6%	nt	nt	-16%[46.1 µM]	nt	-13%	-7%[46.1 µM]	-12%
Cc1ccc(S(=O)(=O)Nc2cccc(C(=O)NCC(c3ccco3)N(C)C)c2)cc1F (stereo not drawn)	nt	-2%	0%	-11%	nt	nt	0%	6%
O=C(CSc1ncn[nH]1)Nc1nc(-c2ccccc2)cs1	-4.0%	25%	-16%	-13%	2%	1%	-23%	0%
Cn1nc(-c2ccccc2F)c2cc(C(=O)NCc3ccc(Cl)cc3)sc21	2.3%	nt	nt	0%[46.1 µM]	nt	-4%	-28%[46.1 µM]	?
CCOCCCn1c(=N)c(C(=O)NC(C)c2ccccc2)cc2c(=O)n3cc(C)ccc3nc21 (stereo not drawn)	-2.8%	nt	nt	-2%[46.1 µM]	nt	11%	-15%[46.1 µM]	19%
Cc1sc2ccccc2[n+]1CC(=O)c1ccccc1	nt	0%	-1%	nt	24%	nt	nt	54%[activator]
CCOc1ccc(-c2cc(C(=O)N/N=C/c3ccc(O)cc3)c3ccccc3n2)cc1	nt	nt	7%	1.4µM*	nt	nt	?	?
COc1ccccc1NC(=O)Cc1cccc2ccccc12	nt	0%	12%	-1%[46.1 µM]	-26%	nt	?	-13%
O=C(Cn1c(=O)n(Cc2ccc(F)cc2)c(=O)c2sc3ccccc3c21)NCc1ccccc1Cl	-2.6%	nt	nt	0%[46.1 µM]	nt	14%	6%[46.1 µM]	-20%
Cc1cc(C)c(OCC(=O)N(Cc2cccs2)C2CCS(=O)(=O)C2)c(C)c1 (stereo not drawn)	nt	-2%	0%	-22%	11%	nt	-12%[46.1 µM]	-8%
Cc1ccccc1C(=O)NCCOc1ccccc1Cl	nt	-5%	?	?	-22%	nt	?	3%
O=C(CSc1nc2c([nH]c3ccccc32)c(=O)n1-c1ccccc1)Nc1ccccc1C(F)(F)F	0.4%	nt	nt	12%[46.1 µM]	nt	2%	nt	-6%
Cc1cccc(N2CCN(C(=O)c3cc(S(=O)(=O)N4CCCC4)cn3C)CC2)c1C	nt	-3%	3%	nt	-13%	nt	nt	-1%
O=C1CCc2cc(S(=O)(=O)N3CCN(Cc4ccc5c(c4)OCO5)CC3)ccc2N1	5.7%	-2%	-1%	14%[14.3 µM]	-19%	17%	-2%	?
O=C(c1ccc(Br)o1)N1CCN=C1SCc1cccc(F)c1	3.8%	7%	31%	nt	-3%	?	nt	-10%
Cc1cccc(NC(=O)CSc2ncc3c(n2)-c2ccccc2N(Cc2ccc(F)cc2)S3(=O)=O)c1C	2.6%	nt	nt	-10%[46.1 µM]	nt	-12%	nt	-28%
(continued)
SMILES	Cruzain inh Det	SARS PLP yeast	RE007 growth inh	Lassa entry inh	NS1 function inh	Cruzain inh noDet	Marburg entry inh	StopGo reporter
C=CCNC(=S)NNC(=O)c1cccn(Cc2ccc(Cl)c(Cl)c2)c1=O	-6.4%	-3%	13%	-6%	-6%	-4%	-6%	-21%
O=C(c1ccco1)N(CCC(c1ccccc1)c1ccco1)Cc1ccccc1 (stereo not drawn)	?	-6%	13%	?	4%	-9%	?	?
COc1ccc(CN2C[C@]3(CO)O[C@@H](CO)C[C@@H]3S2(=O)=O)cc1	nt	3%	2%	nt	nt	nt	3%	-19%
CC(C)CCN1CCNC(=O)C1CC(=O)Nc1ccc(F)cc1 (stereo not drawn)	4.9%	6%	4%	-1%	-4%	1%	-2%	19%
CCN(CC)CCNC(=O)Cn1ncc2c3ccccc3n(Cc3ccccc3C)c2c1=O	-8.3%	nt	nt	?	nt	0%	?	-19%
CN(Cc1ccccc1)C(=O)CNC(=O)Cn1cnc2ccccc2c1=O	5.1%	-6%	7%	10%	2%	2%	1%	-23%
COc1cc(CC(=O)NCc2ccccn2)cc(OC)c1OC	7.0%	0%	12%	6%	-4%	-6%	-3%[46.1 µM]	-12%
O=C(NC1CCN(S(=O)(=O)c2cccc(F)c2)CC1)c1cccc(F)c1	nt	1%	-7%	nt	-5%	nt	nt	-10%
COc1ccc(C(=O)NC(C)c2ccccc2)cc1Br (stereo not drawn)	nt	-1%	-6%	?	nt	nt	-18%	-17%
COc1ccc(N2CCN(CCNC(=O)CCN3C(=O)COc4ccccc43)CC2)cc1	5.5%	-1%	4%	-6%	21%	-5%	3%	nt

Rows were taken by chance. Share with any hit: about 4.8%.
